Screening results from PubChem BioAssay.
PABP polyA inh = blocks human PABP binding to poly(A) RNA; AID 2014; 290,000 compounds, 1% hits; fluorescence polarization; P11940; inhibition, % at 35 µM;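 active means 50% or more with normal probe brightness, or confirmed in later tests; inconclusive means above 50% with abnormal brightness, or retests that disagree; inactive means below 50% or failed in later tests; about a fifth of its hits are not listed in these tables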;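 further: calls also rest on retests at 20 µM and on dose response follow-up; controls were probe without protein and protein plus probe with vehicle; some compounds called inactive have numbers as strong as hits; many hits fall short of the cut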
CSC inhib = cancer stem cell inhibition; cancer stem cell-like cells viability, luminescence; inhibition, % at 7.5 µM; 300,000 compounds, 1.1% hits;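 active means mean at 75% or more and at least half the replicates too; inconclusive means mean and replicates disagree; tested in HMLE shEcad cells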;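 further: 0% = median of negative and 100% = median of positive control wells; the first replicate is given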
Env fusion inh = inhibitors of HIV Env-mediated cell fusion; HeLa-JRFL Env/CEM21 cell fusion, luciferase; 360,000 compounds, 1.1% hits; inhibition, % at 12.3 µM; AID 651610;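 active means mean replicate inhibition score of at least 50 and every replicate individually at or above 50; inconclusive means only one of the two criteria met; inactive means mean below 50 and not all replicates reaching 50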;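 further: 0% = plate neutral controls and 100% = maraviroc near 300 nM; one replicate is shown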
eIF4H FP inh = inhibitors of RNA binding by human eIF4H. eIF4H fluorescence polarization binding assay. inhibition, % at 35 µM. 290,000 compounds, 0.94% hits. AID 2012;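 active means 50% or more with normal probe brightness, or confirmed in later tests; inconclusive means above 50% with abnormal brightness, or retests that disagree; inactive means below 50% or failed in later tests; about a fifth of its hits are not listed in these tables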;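 further: calls also rest on retests at 20 µM and on dose response follow-up; 0% = protein and probe with vehicle and 100% = probe without protein; strong numbers were not always called active; many hits fall short of the cut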
UUG fidelity = modulators of start codon recognition fidelity in yeast; 350,000 compounds, 0.13% hits; S. cerevisiae UUG-firefly luciferase reporter, luminescence/redox ratio; activity score, % at 18.7 µM; AID 602363;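 active means replicate mean at a twofold rise or more, about +100% in these data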;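 further: firefly luciferase made from a UUG start codon reports start codon fidelity; reporter light over untreated wells divided by growth signal over untreated wells; some hits fall short of that in this replicate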
MT1-MMP act inh = MT1-MMP (human) activation inhibition | GFP/RFP ratio change, % at 20 µM | 360,000 compounds, 0.061% hits | AID 651647 | HT1080 RFP-PRO-GFP cells, GFP/RFP ratio fluorescence, overnight; percent of plate control window, DMSO zero;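 active means GFP/RFP ratio change of at least 30% with cell ATP level not reduced by more than half and red fluorescence within 50% of control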; further: strong numbers were not always called active
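Test system: HT1080 cells expressing an RFP-PRO-GFP fluorescent reporter construct / Compound dosing: single-point 20 µM compound, 1% DMSO / Schedule: cells overnight before dosing, compound overnight, 37 °C, 5% CO2 / Evaluation: GFP/RFP fluorescence ratio / Control set: DMSO and RFP-L50D-GFP cell wells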
Rce1 inh = inhibitors of yeast Ras-converting enzyme. yeast membranes, quenched prenylated peptide cleavage fluorescence. calls only. 290,000 compounds, 0.27% hits;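 active means fall in fluorescence gain of 50% or more versus controls, with final raw signal at or below 3038400; inconclusive means same 50% fall but final raw signal above 3038400; inactive means fall in fluorescence gain under 50%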;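 further: plate controls were neutral control wells for no effect and wells lacking membranes for full effect; tested at 10 µM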
Target sequence (Q03530 whole entry, looked up): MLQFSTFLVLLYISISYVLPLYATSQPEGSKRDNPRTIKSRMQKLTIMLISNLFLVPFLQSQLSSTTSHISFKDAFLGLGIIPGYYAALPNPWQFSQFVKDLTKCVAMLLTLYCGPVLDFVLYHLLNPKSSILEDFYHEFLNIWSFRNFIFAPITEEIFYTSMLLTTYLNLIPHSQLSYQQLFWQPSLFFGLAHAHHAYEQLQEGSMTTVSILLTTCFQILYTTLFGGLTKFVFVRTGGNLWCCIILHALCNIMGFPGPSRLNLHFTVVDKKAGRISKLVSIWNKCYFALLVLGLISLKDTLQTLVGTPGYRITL
eIF4H FP inh retest = recorded beside eIF4H FP inh, whose call it bears; inhibition, %; compound at 20 µM; confirmation average;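 mean of two retest wells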
PABP polyA inh retest = second read-out of PABP polyA inh, no call of its own (marks repeat the call); inhibition, %; compound at 20 µM; confirmation repeats;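 mean of two retest wells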
MT1-MMP act inh RFP = recorded beside MT1-MMP act inh, whose call it bears; RFP signal change, %; measured here: RFP expression control read;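 0 = vehicle wells; hits needed this value within 50% of zero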
* marks the source's active call; other numbers are inactive results; i = inactive; ? = inconclusive; . = no result given.

SMILES	PABP polyA inh	CSC inhib	Env fusion inh	eIF4H FP inh	UUG fidelity	MT1-MMP act inh	MT1-MMP act inh RFP	Rce1 inh	others
O=c1[nH]c(=S)n(-c2ccc(F)cc2)c(O)c1/C=N/N1CCOCC1	-6	1	17	0	-13	0	0	i
COC(=O)c1ccc(N2CCN(C)CC2)c([N+](=O)[O-])c1	-15	5	21	5	.	-4	-3	i
FC(F)(F)C1=NC(C(F)(F)F)=NP(N2CCOCC2)(N2CCOCC2)=N1	-4	-1	15	1	-14	1	7	i
COc1ccc(C2=NS(=O)(=O)N(C)C(C(=O)N3CCC4(CC3)OCCO4)=C2)cc1OC	2	-8	3	-11	2	2	-5	i
O=C(O)C12C3CCCC1C32c1ccccc1 (stereo not drawn)	-2	-6	-78	3	-16	-2	-3	i
NC(=O)c1ccc(C(=O)Nc2ccc([As](=O)(O)O)cc2)cc1	12	-11	-20	5	.	.	.	i
O=c1[nH]c2ccccc2n1C1CCN(C(c2ccnc3ccccc23)c2nnnn2-c2ccc3c(c2)OCCO3)CC1 (stereo not drawn)	.	.	21	.	-5	-9	-5	.
CCOc1ccccc1N=C1SCCCN1C	.	-3	-21	.	-19	-3	0	i
Cc1ccc(N2C(=O)NC(=O)/C(=C\C=C\c3ccco3)C2=O)cc1	?	79*	-245	?	-7	-32	31	i
CCOc1ccc2nc(N3CCC(C(=O)N4CCC5(CC4)OCCO5)CC3)sc2c1	-7	-9	-57	-5	1	0	-9	i
Cc1ccc2c(c1)N(C(=O)CCC(=O)N1CCC3(CC1)OCCO3)CCO2	.	-4	-2	.	-6	-1	4	i
Fc1ccc(CCNCc2cccc(Cl)c2)cc1	-6	5	.	-2	-5	4	7	i
O=C1CC(N2CCC(n3c(=O)[nH]c4ccccc43)CC2)C(=O)N1Cc1ccccc1 (stereo not drawn)	0	-7	.	-2	4	1	1	i
COC(=O)C1=C(c2cc3ccccc3o2)C[C@@H]2CC[C@H]1N2C(=O)NCCNC(C)=O	.	-9	-12	.	20	2	0	i
COCCNC(=O)Cn1cc(C=C2C(=O)NC(=O)NC2=O)c2ccccc21	?	-9	17	?	-9	1	7	i
NCCCC(=O)OC1N=C(c2ccccc2Cl)c2cc(Br)ccc2NC1=O (stereo not drawn)	-9	-28	-2	-18	-7	0	2	i
COc1cc([C@H]2OC[C@H]3[C@@H]2CO[C@@H]3c2cc(OC)c(O[C@@H]3O[C@H](CO)[C@@H](O)[C@H](O)[C@H]3O)c(OC)c2)cc(OC)c1O[C@H]1O[C@@H](CO)[C@H](O)[C@@H](O)[C@@H]1O	.	-15	1	.	-4	-3	0	.
CCCCc1nc2ccccc2c(=O)n1-c1ccc(O)cc1	15	9	-27	-5	-6	5	-2	i
O=c1[nH]c(=S)[nH]c(O)c1N=Nc1cccc(S(=O)(=O)N2CCOCC2)c1	19	1	-9	15	.	-4	7	i
COC(=O)CN1C(=O)C2(C(C(=O)OC)=C(N)Oc3ccccc32)C2=C1CC(C)(C)CC2=O (stereo not drawn)	-10	-7	2	-12	-9	1	6	i
Clc1ccccc1CN1CCN(c2ccccc2Cl)CC1	9	10	.	-3	.	4	2	i
CC(C)C12CN3CC(C(C)C)(CN(C1)C3c1cccnc1)C2=O (stereo not drawn)	0	6	.	-6	.	1	4	i
CCNC(=O)[C@H]1O[C@@H](n2cnc3c(N)ncnc32)[C@H](O)[C@@H]1O	0	3	-2	-2	-19	2	4	i
CCOc1cc2c(cc1OCC)-n1cccc1C(c1ccccc1OC)NC2 (stereo not drawn)	-12	.	-1	2	-8	3	4	i
CCN1C[C@]2(COC)CC[C@H](O)[C@@]34C5C[C@@H]6[C@@H](OC)C[C@@](O)(C5[C@H]6O)[C@](O)([C@@H](OC)C23)[C@@H]14 (stereo partly drawn)	.	4	.	.	-22	8	8	i
CSCCC(c1nnnn1-c1ccc2c(c1)OCCO2)N1CCC(n2c(=O)[nH]c3ccccc32)CC1 (stereo not drawn)	.	.	7	.	-10	-14	-5	.
OCCOc1ccccc1	.	-8	.	.	-19	-2	2	.
c1ccc([C@@H]2CO2)cc1	.	-9	.	.	-18	1	4	i
OC(Cc1ccccc1)(c1ccccc1)C1CN2CCC1CC2 (stereo not drawn)	-8	-19	.	-1	6	-16	-9	i
COC(=O)C1=C(c2ccc(OCc3ccccc3)cc2)C[C@@H]2CC[C@H]1N2C(=O)NCCN1CCOCC1	.	.	-6	.	14	2	2	.
COC(=O)C1=C(c2ccc(F)cc2OCc2ccccc2)C[C@@H]2CC[C@H]1N2C(=O)N1CCC(C)CC1	.	14	.	.	-18	-3	-9	.
COC(=O)C1=C(c2c(C)noc2C)C[C@@H]2CC[C@H]1N2C(=O)N1CCc2cc(OC)c(OC)cc2C1	.	-5	.	.	-2	1	-1	.
Nc1nc(SCCC(F)=C(F)F)n[nH]1	-5	3	-10	2	.	-3	0	i
CCN(CC)C(=O)c1ccc(NC(=S)NC(=O)CCc2ccccc2)cc1	-13	-14	10	-5	-26	3	-4	i
CC(C)c1ccc(N2C(=O)CC(=O)NC2=O)cc1	18*	-11	12	?	2	-9	3	i	PABP polyA inh retest=72*
CCN(CC)P(=O)(c1nccn1C)N(CC)CC	2	0	9	2	-15	0	-1	i
CCCCn1c(O)c(C(CC)=NCCN2CCOCC2)c(=O)[nH]c1=O	18	-7	0	-3	0	8	3	i
COc1ccc(OC)c(N=Cc2c(O)n(Cc3ccccc3)c(=S)[nH]c2=O)c1	58*	-2	12	35*	2	-3	-1	i	eIF4H FP inh retest=60*;PABP polyA inh retest=55*
O=c1[nH]c(=O)n(Cc2ccco2)c(O)c1C=NCCN1CCNCC1	4	-9	7	-5	.	-2	1	i
Cc1cccc(-n2c(C)nc3ccccc3c2=O)n1	-13	-3	-49	0	-7	2	5	i
ClCCN(CCCl)c1ccc(C=Cc2ccncn2)cc1	.	.	15	.	-15	-84	8	.
COc1ccc(CNCC(=O)N2CCC3(CC2)OCCO3)cc1	32	-5	.	-4	.	2	-1	i
COc1cc(OC)cc(-n2nc(C(=O)N3CCC4(CC3)OCCO4)c3ccccc3c2=O)c1	-10	-1	.	-13	-1	0	0	.
O=C1CCN(C(=O)C(Cl)Cl)N1	-10	-16	5	-13	.	0	1	i
N#CC1c2ccccc2-n2nncc2CN1Cc1cc(Cl)cc(Cl)c1 (stereo not drawn)	.	.	-8	.	-4	-11	-36	.
S=P(N1CCCCCC1)(N1CC1)N1CC1	.	.	-12	.	-12	1	3	.
O=P(Nc1ccccc1Cl)(c1ccccc1)c1nc2c(s1)CCCC2 (stereo not drawn)	-2	-7	-48	91	-8	2	3	i	eIF4H FP inh retest=8;PABP polyA inh retest=6
CN1C(=O)/C(=C\c2ccc(N3CCCCC3)o2)C(=O)NC1=S	?	-10	-123	?	-18	-208	5	i
c1ccc(CCc2ccc3n2Cc2cnnn2-c2ccccc2-3)cc1	.	.	40	.	-21	-1	-7	.
COc1ccc2oc3c(c2c1)NC(=O)CN=C3c1ccccc1	-7	-12	-7	0	.	-1	0	i
O=C1NC(=S)NC(=O)C1c1ccccc1	.	.	13	.	-14	-2	5	.
O=C(Cc1ccc(Br)cc1)N1CCN(Cc2ccccc2)CC1	14	.	.	0	-21	3	0	i
Cn1c(O)c(C=NCCN2CCNCC2)c(=O)n(C)c1=O	4	-2	-78	0	.	0	1	i
CC(C)n1c(=O)c(C=Nc2ccc(F)cc2)c(O)n(Cc2ccco2)c1=O	11	-4	17	-7	.	-3	-3	i
CN1CCC(OC(=O)C2c3ccccc3Oc3ccccc32)CC1	-1	-2	-36	12	-19	-12	-10	i
O=C(CCC(=O)N1C[C@H]2C[C@@H](C1)c1cccc(=O)n1C2)NCc1ccc(F)cc1	.	-12	.	.	21	3	5	.
CC1(C)CN=C(NCc2ccccc2Cl)S1	6	.	-102	-5	-16	0	5	i
O=P1(NC2CCCC2)COc2ccccc2OC1	0	-5	-12	-3	-18	-2	-7	i
O=C(Cn1ncc2c3ccccc3n(Cc3ccccc3F)c2c1=O)N1CCC2(CC1)OCCO2	7	-17	.	2	5	-3	-4	i
Cc1cc(OCC(=O)N2CCC(C(=O)O)CC2)c2c3c(c(=O)oc2c1)CCC3	-6	-2	.	-1	-11	-1	1	.
Next section.
SMILES	PABP polyA inh	CSC inhib	Env fusion inh	eIF4H FP inh	UUG fidelity	MT1-MMP act inh	MT1-MMP act inh RFP	Rce1 inh	others
CCN1C(=O)NC(=O)C2(CCCC2)C1=O	.	.	0	.	-33	1	8	.
CC(C)C[C@H](NC(=O)[C@@H]1CCCN1C(=O)[C@@H](N)Cc1ccc(O)cc1)C(=O)NCC(N)=O	-3	12	-25	2	-9	-4	4	i
CN1CCN(C(=O)Cc2ccccc2)CC1	6	3	1	-4	.	-2	2	.
C1=NCCc2c1[nH]c1ccccc21	.	-4	11	.	-3	14	10	i
COc1cccc(CCNCc2cccc(C(F)(F)F)c2)c1	-12	-11	20	21	-14	-2	3	i
CCN(CCNc1ccc([N+](=O)[O-])c2cccnc12)S(=O)(=O)c1ccc(Cl)cc1	5	10	81*	16	14	9	-1	i
COC(=O)C1=C(c2ccc(OC(F)(F)F)cc2)C[C@@H]2CC[C@H]1N2C(=O)NCCO	.	-13	5	.	0	5	3	.
CCc1cccc(CC)c1N(COC)C(=O)CCl	.	.	26	.	-11	2	3	.
COC(=O)C1=Nc2ccccc2/C1=C\c1c(O)n(-c2ccc(OC)cc2)c(=O)[nH]c1=O	-4	-6	-10	38	-18	-12	-5	i
O=C1NCN(c2ccccc2)C12CCN(C(c1cc3ccccc3o1)c1nnnn1C1CCCC1)CC2 (stereo not drawn)	.	.	-57	.	-9	-1	-5	.
Clc1ccc(OCC#CCN2CCCCCC2)cc1	-17	18	14	6	-16	3	1	i
CC(ON1CC1(C(F)(F)F)C(F)(F)F)(C(N)=O)C(N)=O (stereo not drawn)	-11	6	-18	-3	-11	3	5	i
O=C(Nc1cccc(Cl)c1)OC1CN2CCC1CC2 (stereo not drawn)	-1	18	43	-5	.	-4	-15	i
COc1cccc(N2CCN(Cc3ccc(Cl)cc3)CC2)c1	16	32	.	0	-2	-4	-1	i
COc1ccc(C(C)=O)cc1CC(C(=O)c1ccc(Br)cc1)N(C)C (stereo not drawn)	-10	-1	-8	-13	.	.	.	i
COc1ccc(-n2c(C)cc(C(=O)C[N+]34CCN(CC3)CC4)c2C)cc1	0	-10	2	1	-13	-1	1	i
COC(=O)C1=C(c2cccc(OCc3ccccc3)c2)C[C@@H]2CC[C@H]1N2C	.	.	7	.	-13	0	0	.
COC(=O)C1=C(c2ccc(-c3ccccc3)c(F)c2)C[C@@H]2CC[C@H]1N2C(=O)NCc1ccco1	.	4	-22	.	-13	2	-16	.
CCc1ccc(N2C(=O)NC(=O)/C(=C\c3cc(C)n(-c4cc(C(=O)O)cc(C(=O)O)c4)c3C)C2=O)cc1	16	0	-1	44	19	-10	8	i
O=c1c2ccccc2nc(-c2ccccc2F)n1-c1ccccc1	-2	38	-50	5	-3	-6	0	i
Cc1cccc(N2CCN(CCc3ccccc3)CC2)c1C	-1	-6	27	-5	-9	-2	2	i

An excerpt; count on the stated rates, not on these rows.
